From PubChem
BJeLR lethal – MLPCN primary cell-based screen for lethality selective to Ras in HRASV12 cells. 300,000 tested, 0.17% active. AID 1554, 2009. inhibition, % (no concentration beside the values). BJeLR (HRASV12) viability, CellTiter-Glo ATP luminescence, 48 h; reference of the scale not given here;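 active means replicate mean above 50%; inconclusive means above 50% but judged a plate artefact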;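 further: 50 nL library stock added to about 25 µL; numbers are from one replicate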
Autofluor counter – compound fluorescence in toxin protease inhibitor counterscreen | compound autofluorescence counterscreen, microsphere flow cytometry; active compounds read high | fluorescence intensity (no concentration beside the values) | 360,000 tested, 3.1% active;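 active means at least 3 SD above the mean of all compounds, about 16000 in these data; inconclusive means too few beads counted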;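 further: 100 nL of 1 mM stock went into each well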
RN4220 kill – growth inhibition of S. aureus RN4220, primary screen, OD600 | 16 h | inhibition, % (no concentration beside the values) | 330,000 tested, 0.33% active;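 active means z-score of -3 or lower and OD600 up to 0.18 on both plates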;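 further: plate controls were untreated cells for no effect and reference antibiotic for full effect; stock transfer was 100 nL into about 80 µL; one replicate is shown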
Sa ugtP lethal – growth inhibition of ugtP-null S. aureus, primary screen, RN4220 ugtP deletion, OD600 | growth inhibition, % (test concentration not listed) | 16 h; some inactives read as strong as hits | 330,000 tested, 0.54% active;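 active means z-score under -3 and OD600 up to 0.15 on both plates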;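 further: plate controls were untreated wells for no effect and antibiotic for full effect; wells of about 80 µL received 100 nL stock; the first replicate is given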
Mtb hypoxia rep – PubChem AID 1159583; M. tuberculosis hypoxia-regulated fluorescent reporter, fluorescence; fluorescence inhibition, % (no concentration beside the values); 300,000 tested, 0.1% active;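 active means 35 to 45% if threefold the growth effect, above 45% if 1.5-fold the growth effect; inactive means the rest, general growth blockers included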;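 further: wells of about 50 µL received 100 nL stock; 0% = vehicle wells and 100% = reference inhibitor wells; whole bacteria with a GFP reporter of the hypoxia response; strong numbers were not always called active; many hits fall short of the cut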
PrP UTR inh – inhibition of PrP 5' UTR reporter expression. cell-based PrP 5' UTR mRNA reporter, plate reader. inhibition, % (no concentration beside the values). 340,000 tested, 0.35% active;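 active means every replicate at 50% or more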;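 further: 0 = median of the neutral control wells; tested in H4 reporter cells; numbers are from one replicate; inactives centre near -14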
Mtb hypoxia rep growth – also measured in Mtb hypoxia rep; calls as there; growth inhibition, %; measured here: M. tuberculosis growth (absorbance);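 0% = vehicle and 100% = reference antibiotic; read after six days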
* hit, by the source's call; ? = inconclusive; / = no result given.

SMILES	BJeLR lethal	Autofluor counter	RN4220 kill	Sa ugtP lethal	Mtb hypoxia rep	Mtb hypoxia rep growth	PrP UTR inh
COC(=O)CN(c1ccc(F)cc1)S(=O)(=O)c1ccccc1	6	3653	9.2	5	5	5	-15
CCN(CC)CCN=CC1=C(O)CNC1=O	6	3668	-6.4	2	/	/	-6
CN(C)CCN(Cc1ccco1)c1ccccn1	/	4217	5.2	2	6	11	-13
CC1=Nc2ccc(C)cc2N(Cc2ccccc2)C(=O)C1	2	6062	-1.0	12	10	6	-23
Cc1ccccc1NC(=O)c1ccc2c(c1)N(C)CCS2	9	6330	2.5	-8	1	4	6
C[C@]12c3[nH]c4ccccc4c3CCN1C(=O)C(CC(=O)NCCC1=CCCCC1)C[C@@H]2C(=O)N1CCCCC1 (some centres undefined)	/	4188	-0.8	0	-4	-15	-16
CC1=NN(c2ccc(C)cc2C)C(=O)C1C(c1cccc(O)c1)C1C(=O)N(c2ccc(C)cc2C)N=C1C (centres undefined)	-2	8461	/	/	/	/	-28
COC(=O)C1=C(C)N(c2ccc(F)c(Cl)c2)C(=O)C1	-15	8209	6.1	-7	17	16	-31
COc1ccc(C(=O)CC(CC(=O)c2ccc(OC)cc2)C(=O)O)cc1	1	3816	2.4	4	19	8	-7
Cc1ccc(C=Nn2c(COc3ccccc3)n[nH]c2=S)o1	/	/	3.9	0	15	6	/
CCOC(=O)N1CCN(C(=O)c2ccc(OC(C)=O)cc2)CC1	1	3280	3.5	-2	3	-2	5
CCCC(=O)Nc1ccc(C(=O)NN=C(C2CC2)C2CC2)cc1	1	2155	4.7	6	6	1	-22
COc1ccc(/C=N/NC(=O)C(=O)NCc2cccnc2)cc1OC	4	2601	/	/	/	/	14
O=C(NCCn1cc(SCc2ccccc2F)c2ccccc21)c1c(F)cccc1F	5	6975	-4.6	0	8	12	-37
O=C(NC(Cc1c[nH]c2ccccc12)C(=O)NN=Cc1cccnc1)c1cccs1 (centres undefined)	/	/	-0.5	-10	-11	1	/
COc1ccc(OC)c(C(c2nnnn2C2CCCC2)N2CCc3ccccc3C2)c1 (centres undefined)	-4	3612	2.1	0	/	/	6
COc1ccc(NC(=O)c2cccc(S(=O)(=O)N3CCCCCC3)c2)cc1	-4	3710	-0.5	0	12	5	-6
COC(=O)c1ccc(CSc2nnnn2-c2ccc(C)cc2C)o1	0	8577	5.5	6	9	7	14
CNS(=O)(=O)c1cnccc1N1CCN(C)CC1	13	2491	0.0	6	7	-4	-27
Cc1ccc(OCCC(=O)Nc2ccc3c(c2)OCO3)cc1	/	3300	-3.3	-4	1	1	-2
COc1ccc(NS(=O)(=O)c2cccc(C(=O)N/N=C/c3ccc(O)cc3)c2)cc1	0	3807	/	/	/	/	-27
Cc1cccn2c(=O)c(/C=C(\C#N)C(=O)NC3CCS(=O)(=O)C3)c(N3CCC(C(N)=O)CC3)nc12 (centres undefined)	0	2425	-0.4	2	-3	-2	-18
COc1cc(NC(=O)c2ccccc2Cl)ccc1NC(=O)c1cccs1	-2	3190	-4.4	5	1	-4	-22
Cn1c(N)c(C(=O)c2ccc(Oc3ccccc3)cc2)c(=O)n(C)c1=O	0	2867	5.9	1	10	4	-5
COc1ccc(C2CC(c3ccncc3)=NN2c2ccc(S(N)(=O)=O)cc2)cc1 (centres undefined)	/	3709	-4.2	8	0	7	-101
CCn1cc(C2=NOC(C(=O)Nc3cc(OC)c(Cl)cc3OC)C2)c(C)n1 (centres undefined)	0	10893	1.5	-3	4	9	-18
Cc1nc(NC(=O)C2CC2)sc1C(=O)N1CCCCC1	2	8723	-0.3	-2	1	4	-18
Cc1oncc1C(=S)Nc1ccccc1	1	8340	5.5	5	18	7	-16
CCn1cc(C=NNC(=O)COc2cccc(C)c2C)c(C)n1	/	/	5.0	-1	8	9	/
CCCn1c(SCC(=O)N2c3ccccc3Sc3ccccc32)nc2c1c(=O)n(C)c(=O)n2C	5	5770	-1.8	-1	-5	-16	1
CCN(CC)C(=O)c1scc2c1OCCO2	-7	3970	0.7	-2	/	/	-20
COc1cc(C(=O)N2CCN(c3ccc(C)cc3C)CC2)cc(OC)c1OC	28	6087	3.4	6	/	/	-30
COCCN1CCC(CNCc2cn[nH]c2-c2ccc(C)c(C)c2)C1 (centres undefined)	14	6440	2.2	7	1	3	-19
COCCNC(=O)CC(NS(=O)(=O)c1ccc(NC(C)=O)cc1)C(C)C (centres undefined)	7	4726	-1.6	-3	/	/	0
COc1ccc(-c2cc(C(=O)Nc3cccnc3)c3ccccc3n2)cc1OC	-4	5695	-5.0	-14	-4	0	10
CC(C)(C)N1CC(c2nc3ccccc3n2Cc2ccccc2)CC1=O (centres undefined)	3	11286	0.8	-5	10	4	-45
Cc1ncc(CN2CCN(Cc3ccccc3)C(CCO)C2)s1 (centres undefined)	-4	5913	1.4	1	13	-3	4
CC(=O)c1cccc(OCC(=O)NC2CCCCCC2)c1	/	5145	0.6	1	17	24	-10
Cc1ccc(C)c(C(=O)NCc2ccncc2)c1	10	3780	1.1	-1	/	/	-18
COc1cc(C=CC(=O)NNc2c(F)c(F)cc(F)c2F)ccc1OC(F)F	/	/	0.5	8	-22	-14	/
CC(=O)Nc1cccc(NC(=O)C(=O)NCC(c2ccco2)N2CCc3ccccc3C2)c1 (centres undefined)	3	?	0.6	20	7	-2	-10
COc1ccc(-c2nnc(SCC(=O)N3c4ccccc4Sc4ccccc43)o2)cc1	-1	3414	5.9	-4	-5	-2	-6
C=CCn1c(=O)c2ccccc2n2c(SCC(N)=O)nnc12	1	2173	2.9	7	/	/	-17
COCc1cc(C)n(CC(=O)Nc2ccc(N3CCOCC3)c(Cl)c2)c(=O)c1C#N	-3	3696	2.6	4	5	-1	-17
COc1ccc([N+](=O)[O-])cc1NC(=O)COC(=O)C1CC1	-23	4179	4.2	0	9	-1	-19
Cc1ccc(NC(=S)N(CCCN2CCOCC2)Cc2ccco2)cc1C	/	3719	17	7	7	7	4
CN1C(=O)NC2C1N(S(C)(=O)=O)CCN2S(C)(=O)=O (centres undefined)	-5	6355	5.3	12	-1	8	-8
CCCN(Cc1ccccc1)C(=S)Nc1ccc(SC(F)F)cc1	-4	4575	0.9	19	5	7	-26

One compound at a time (already shown). Order of values: BJeLR lethal | Autofluor counter | RN4220 kill | Sa ugtP lethal | Mtb hypoxia rep | Mtb hypoxia rep growth | PrP UTR inh
CCCN(Cc1ccccc1)C(=S)Nc1ccc(SC(F)F)cc1 is listed with -4 | 4575 | 0.9 | 19 | 5 | 7 | -26
Cc1ccc(C)c(C(=O)NCc2ccncc2)c1 is listed with 10 | 3780 | 1.1 | -1 | / | / | -18
COc1cc(C=CC(=O)NNc2c(F)c(F)cc(F)c2F)ccc1OC(F)F is listed with / | / | 0.5 | 8 | -22 | -14 | /

(cont.)
SMILES	BJeLR lethal	Autofluor counter	RN4220 kill	Sa ugtP lethal	Mtb hypoxia rep	Mtb hypoxia rep growth	PrP UTR inh
CCOc1cc(C2C(C(=O)c3ccc(C)cc3)=C(C(=O)OC)Nc3nnnn32)ccc1O (centres undefined)	-1	2794	8.3	15	-6	-1	-11
COc1cccc(C(C(=O)NC2CCCCC2)N(C(=O)c2csnn2)C2CC2)c1 (centres undefined)	-4	5207	-3.0	14	-1	0	-7
CC(=O)c1sc2nc(SCC(=O)NCCc3ccccc3)[nH]c(=O)c2c1C	5	4294	10	16	10	0	-2
Cc1cc2nnc(SCC(=O)N3CCN(c4ccccc4)CC3)n2c(N)n1	1	3045	4.1	-3	/	/	-7
C=CCC(=O)NC(C)c1cnn(-c2ccccc2C)c1C (centres undefined)	-2	4327	1.6	10	-5	-4	-8
COc1ccc(CN(C)CC(=O)Nc2cccc(S(=O)(=O)N3CCCC3)c2)cc1F	/	3560	3.4	2	-5	3	-5
O=C(C1CCCC1)N1CCCC(Nc2ccccc2)C1 (centres undefined)	-10	5579	0.7	5	13	1	-15
CCC(C)[C@H](NC(=O)NCCCc1ccccc1)C(=O)OC (some centres undefined)	2	7885	0.7	7	5	-3	/
COc1ccc(S(=O)(=O)N(C)C2(C)CCS(=O)(=O)C2)cc1OC (centres undefined)	1	5596	2.5	7	4	6	-9
Fc1ccc(CNCC2CCCO2)cc1 (centres undefined)	-7	3296	-1.0	5	11	2	-7
Cc1ccn2cc(CC(=O)O)nc2c1	-8	4732	4.2	2	5	0	-19
Nc1cc(N)nc(SCc2cc(=O)oc3cc4c(cc23)CCC4)n1	-19	4116	2.7	-5	-3	5	4

Structures above that contain a cyano group (2):
SMILES	BJeLR lethal	Autofluor counter	RN4220 kill	Sa ugtP lethal	Mtb hypoxia rep	Mtb hypoxia rep growth	PrP UTR inh
Cc1cccn2c(=O)c(/C=C(\C#N)C(=O)NC3CCS(=O)(=O)C3)c(N3CCC(C(N)=O)CC3)nc12 (centres undefined)	0	2425	-0.4	2	-3	-2	-18
COCc1cc(C)n(CC(=O)Nc2ccc(N3CCOCC3)c(Cl)c2)c(=O)c1C#N	-3	3696	2.6	4	5	-1	-17

Next part.
SMILES	BJeLR lethal	Autofluor counter	RN4220 kill	Sa ugtP lethal	Mtb hypoxia rep	Mtb hypoxia rep growth	PrP UTR inh
CN(C)S(=O)(=O)N1CCCC(C(=O)c2ccc(-c3ccccc3)cc2)C1 (centres undefined)	8	4039	8.3	4	11	7	-19
CC(=O)c1cccc(NC(=O)C(OC(=O)c2ccccc2NS(=O)(=O)c2cccs2)c2ccccc2)c1 (centres undefined)	-3	2590	8.7	6	8	7	-11
O=C(Nc1ccccc1Cl)c1cccc(NC(=O)C2C3CC4OC(=O)C2C4C3)c1 (centres undefined)	-7	23034*	11	-7	12	12	-1
CC12CCC(c3nnc(SCC(=O)Nc4cccc5ccccc45)nc31)C2(C)C (centres undefined)	-5	9863	-0.2	-7	5	4	-24
CC(Nc1nc(N2CCNCC2)nc2ccccc12)c1ccccc1 (centres undefined)	6	3935	18	12	11	24	0
COc1cccc(C(=O)NCc2nnc(SCC(=O)Nc3nccs3)n2-c2cccc(C)c2)c1	-6	16987*	2.8	6	6	5	-9
CCCCNC(=O)N(O)C1N(N=Cc2cccnc2)C(=S)SC1(C)C (centres undefined)	/	/	-3.9	-10	-6	8	/
CSCCC(NS(=O)(=O)c1ccccc1F)C(=O)N1CCCCCC1 (centres undefined)	11	2962	4.1	-4	-6	-8	-12
CCOC(=O)c1ccc(N2C(=O)c3n[nH]c(C)c3C2c2cccnc2)cc1 (centres undefined)	2	3007	4.4	4	-9	2	7
O=C(/C=C/c1ccccc1)NCC(=O)N/N=C/c1ccccc1[N+](=O)[O-]	-6	1922	/	/	/	/	-8
O=C(O)CCc1ccc(-c2cccs2)n1NC(=O)c1cccs1	-7	4150	0.3	-1	-3	4	-16
O=C(CN1CCN(c2ccccn2)CC1)Nc1ccc(Cl)c(C(F)(F)F)c1	5	2411	-4.5	3	/	/	0
COc1ccc(N(Cc2cc3cc(OC)ccc3[nH]c2=O)C(=O)c2cccnc2)cc1	/	4357	2.6	-2	/	/	-28
CC(C)CC(=O)Nc1ccccc1-c1nnn(CC(=O)N2CCc3ccccc3C2)n1	-5	3860	1.5	-2	10	16	-14
COc1ccc2nc(SCC(=O)N3CCCCCC3)c(C#N)cc2c1	0	4803	1.9	3	/	/	-12
COc1ccc(NS(=O)(=O)NC(=O)c2cn(C)c3ccccc23)cc1	4	5499	1.5	-1	8	11	-12
O=C(NCCCn1ccnc1)c1cc2c(s1)CCCC2	-23	5224	4.6	11	6	-5	-32
Cc1ccc(C)c(NC(=O)C(OC(=O)c2ccc(CO)cc2)c2ccccc2)c1 (centres undefined)	/	/	-3.2	-3	0	-2	-9
CCN(CCNC(=O)c1ccc2nc(-c3ccccc3NC(C)=O)c(=O)[nH]c2c1)c1ccccc1	6	5976	-0.4	10	-4	9	-27
CCC[C@@H](OS(N)(=O)=O)[C@@H](Cc1ccccc1)C(=O)OCC	-1	3944	/	/	/	/	10
Cc1ccc2cc(CCNC(=O)CC(C)C)c(=O)[nH]c2c1	1	5163	3.2	1	2	6	-19
O=C(Nc1ccc(N2CCCC2)cc1)c1cccc(F)c1	14	19303*	-6.3	-6	-4	-3	-64
O=C(CSc1nnc(NCc2ccccc2)s1)c1ccco1	-9	3496	4.7	3	/	/	-12
O=c1[nH]c2ccccc2n1Cc1ccc(F)cc1	2	6019	1.0	-1	4	2	-8
Cn1ncc2cc(NC(N)=S)ccc21	19	4517	3.3	8	/	/	-21
C=CCn1c(COc2ccccc2)nnc1SCC(=O)Nc1ccc(S(N)(=O)=O)cc1	3	3599	4.9	8	/	/	-6
COc1ccc(OC)c(/C=C2/Sc3ccccc3C2=O)c1	6	7168	8.5	-3	7	4	-11
